High-throughput results as filed in PubChem.
Sa growth inh – blocks Staphylococcus aureus growth | S. aureus RN4220 growth, OD600, 20 h, 42 °C; active compounds read low | relative growth, % (no concentration beside the values) | hit rate 0.53% among 170,000;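 active = growth at 42 °C up to 50% and 20 or more points under that at 30 °C, or under 10% at both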;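 also: 300 nL library stock went into each well; scaled to the means of positive and negative controls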
GIV-Gai inh – inhibitors of GIV GBA-motif binding to rat Galpha-i3; Galpha-i3/FITC-GIV peptide fluorescence polarization, 90 min; active compounds read low; scaled: aluminum fluoride 0%, vehicle 100%; hit rate 0.42% among 210,000; percent of control (FP), % (no concentration beside the values); AID 1224905;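 active = replicate mean at 85% of control or lower, very high polarization wells dropped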;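 also: wells of about 15 µL received 100 nL stock; the first replicate is given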
Target sequence (P08753 whole entry, looked up): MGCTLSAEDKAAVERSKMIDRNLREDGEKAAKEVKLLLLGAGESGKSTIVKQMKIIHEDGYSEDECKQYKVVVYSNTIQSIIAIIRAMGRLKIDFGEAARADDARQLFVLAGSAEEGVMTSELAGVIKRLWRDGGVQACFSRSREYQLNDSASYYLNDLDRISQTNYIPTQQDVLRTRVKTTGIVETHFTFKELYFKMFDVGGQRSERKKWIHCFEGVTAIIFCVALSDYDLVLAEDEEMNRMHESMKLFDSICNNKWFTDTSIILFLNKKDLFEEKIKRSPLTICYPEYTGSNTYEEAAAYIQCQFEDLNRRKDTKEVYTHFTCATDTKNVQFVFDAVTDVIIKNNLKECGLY
HCMV UL50-53 inh – disrupts HCMV UL50-UL53 complex binding. HTRF UL50-UL53 interaction, normalized percent inhibition. hit rate 0.15% among 190,000. inhibition, % (no concentration beside the values);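 active = both replicates at 50% or more, plus weaker picks with an unusually low signal ratio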;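 also: stock transfer was 100 nL into about 20 µL; 0% = negative control wells and 100% = wells with untagged competitor protein; inactives centre near -12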
Sa growth inh second temp – recorded beside Sa growth inh, whose call it bears; relative growth, %; measured here: growth at 30 °C;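 optical density after 20 h as mean of two plates; 100% = untreated growth and lower means inhibition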
Starred values were filed as active, the others as inactive; . = no result given; & = joins results of further samples. The order is random, and some 0.85% of all compounds hit somewhere here.

Start of the listing, in advance, four compounds:
SMILES | Sa growth inh | Sa growth inh second temp | GIV-Gai inh | HCMV UL50-53 inh
CC(=O)c1ccc(N2CCN(c3ncnc4c3cnn4C)CC2)cc1 | 87 | 90 | 103 | .
CC1CC(C)CN(CCCN)C1 (stereo not given) | 85 | 93 | 101 | -22
Cc1ccc(-c2c(C)n3c4c(=O)n(C)c(=O)n(C)c4nc3n2CCO)cc1 | 108 | 92 | 105 | .
CC1CN(C(=O)CCS(=O)(=O)c2ccccc2)CC(C)O1 (stereo not given) | 89 | 87 | 100 | -28

Results, repeating the preview:
SMILES | Sa growth inh | Sa growth inh second temp | GIV-Gai inh | HCMV UL50-53 inh
CC(=O)c1ccc(N2CCN(c3ncnc4c3cnn4C)CC2)cc1 | 87 | 90 | 103 | .
CC1CC(C)CN(CCCN)C1 (stereo not given) | 85 | 93 | 101 | -22
Cc1ccc(-c2c(C)n3c4c(=O)n(C)c(=O)n(C)c4nc3n2CCO)cc1 | 108 | 92 | 105 | .
CC1CN(C(=O)CCS(=O)(=O)c2ccccc2)CC(C)O1 (stereo not given) | 89 | 87 | 100 | -28
Cc1cc(C(F)(F)F)c2c(n1)sc1c(=O)[nH]c(C)nc12 | 92 | 119 | . | -10
COC(=O)c1scc2c(Sc3nccn3C)cc(C(F)(F)F)nc12 | 115 | 86 | 97 | -37
CCC(C)NC(=O)c1cc(C)nc2c1c(=O)n(C)c(=O)n2C (stereo not given) | . | . | 107 | 7
O=C(Nc1cccc(Cl)c1)OC1CCCCc2cccnc21 (stereo not given) | 103 | 81 | 103 | -25
CC(=O)Oc1ccc2c(c1)C(C)=CC(C)(C)N2C(C)=O | 98 | 81 | 103 | -29
COC(=O)c1cc(-c2nc(C)cs2)c(SC)s1 | 104 | 84 | 105 | 0
COC(=O)c1ccc(NC(=O)COc2ccccc2)cc1 | 78 | 84 | . | 6
Fc1ccc(Oc2cnccn2)c(Cl)c1 | 90 | 93 | . | -15
Cc1ccc(CN2C(=O)/C(=C/C(=O)NCCc3ccccc3)Sc3ccccc32)cc1 | 114 | 89 | 97 | .
Cc1ccc2c(c1)OC=CC(C(=O)Nc1ccc(Br)cc1)=C2 | . | . | 105 | -28
CC1CCCC(N2CNc3nc4ccccc4n3C2)C1C (stereo not given) | 80 | 75 | 97 | -5
O=S(=O)(NCc1cc(F)cc2c1OCOC2)c1ccc(N2CCOCC2)nc1 | 99 | 91 | 108 | -3
CC(NS(=O)(=O)c1ccccc1)C(N)=O (stereo not given) | 98 | 98 | 98 | -4
N#C/C(=C\c1ccc(-c2cc(Cl)ccc2Cl)o1)C(=O)Nc1ccccc1C(=O)O | 97 | 75 | 113 | -74
Cc1ccc(C)c(-n2c(SCCN)nnc2-c2cccc(Cl)c2)c1 | 117 | 91 | . | 2
O=C(NC1CCCCC1)c1ccc(-n2nc(OCc3ccc(Cl)cc3)ccc2=O)cc1 | . | . | 100 | -21
COc1ccc(N=c2scc(C)n2CCCN2CCCC2=O)cc1 | 97 | 94 | . | -14
Cc1csc2ncc(C(=O)N(C)Cc3ccccc3)c(=O)n12 | 93 | 89 | 98 | -16
Cc1cccc(C(=O)NCC(c2cccnc2)S(=O)(=O)c2ccc(F)c(C)c2)c1 (stereo not given) | . | . | 109 | -29
CCNC(=S)NCc1ccc2c(c1)OCO2 | 111 | 102 | 104 | -16
Cc1nn(C)c(C)c1CCN(C)S(=O)(=O)c1ccc(Br)s1 | . | . | 107 | -17
CC(Sc1nnc(-c2ccco2)n1Cc1ccccc1)C(=O)NC1CCCC1 (stereo not given) | 102 | 90 | . | -44
CC(=O)N(Cc1ccccc1C)c1cccc(C)c1C | 95 | 104 | 102 | -14
CCOCCc1nn2c(=O)cc(COC(=O)CNC(=O)c3ccc(C(C)(C)C)cc3)nc2s1 | 91 | 95 | 111 | .
Cc1ccc(F)cc1NC(=O)CNC(N)=O | 79 | 85 | . | -33
Fc1ccc2nc(N3CCc4ccccc4C3)sc2c1 | 99 | 85 | 99 | -30
COc1cc(C2CC(=O)Nc3nc(N)[nH]c(=O)c32)ccc1OCc1ccccc1 (stereo not given) | . | . | 96 | -22
CC(/C(=N/O)c1ccccc1)N1CCC(O)O1 (stereo not given) | 82 | 91 | . | -14
Cc1cc2c(n1-c1ccc(C(=O)NCC(C)c3ccccc3)cc1)CCCC2 (stereo not given) | 120 | 98 | 107 | .
NS(=O)(=O)c1ccc(CCNC(=O)CCCCCn2c(=O)[nH]c3ccsc3c2=O)cc1 | . | . | 104 | -2
CC(C)N(Cc1ccccc1)C(=O)COc1ccccc1 | 81 | 87 | . | -12
COc1cc(NC(=O)Cn2c(SCc3ccc(F)cc3)nc3cccnc32)cc(OC)c1 | 102 | 90 | 112 | .
O=c1cc(CN2CCOCC2)nc2sccn12 | 115 | 97 | . | -6
Cc1cc(C)n(-c2nc3ccccc3nc2NCc2ccc(F)cc2)n1 | . | . | 102 | 8
Cc1ccc(OCCCn2cnc3ccccc32)cc1 | 79 | 62 | 99 | .
CCC(C(=O)Nc1ccccc1F)n1c(SCc2ccc(F)cc2)nc2ccncc21 (stereo not given) | 112 | 85 | 102 | .
Cc1cc(-c2nn3c(C4CCCCC4)nnc3s2)no1 | . | . | 106 | -16
O=C(CCCN1C(=O)CSc2ncccc21)N1CCN(c2ccccn2)CC1 | 85 | 79 | 103&102 | -19&12
O=C(O)CSCC(=O)N1CCCCC1 | 98 | 98 | . | 8
O=C1NCCCc2nc(N3CCCCC3)sc21 | 85 | 93 | 101 | -11
OCCN(CCO)c1cccc(Cl)c1 | 95 | 103 | 102 | -1
COCc1cc(=O)n2[nH]c(Nc3cc(Cl)ccc3C)nc2n1 | 78 | 86 | 101 | -33
CCOC(=O)c1cnc2cc(-c3ccc(C(C)(C)C)cc3)[nH]n2c1=O | 90 | 91 | 104 | 5
COc1ccc(N2CC(NC(=O)COc3ccccc3C)CC2=O)cc1OC (stereo not given) | 91 | 97 | 100 | .
CC(C)C(=O)Nc1ccc(N2CCC(C(N)=O)(N3CCCCC3)CC2)cc1C(=O)O | . | . | 101 | -4
CC(C)(C)C(=O)Nc1ccc(N2CCC(C(N)=O)(N3CCCCC3)CC2)cc1C(=O)O | . | . | 99 | -29
CCOc1ccc(-c2c(C)nn3c(C)c(C(=O)Nc4ccccc4Cl)cnc23)cc1OCC | . | . | 106 | -23
Nc1ccc(C(=O)CC(=O)Nc2ccc(Cl)cc2)cc1 | 113 | 68 | 101 | .
C/C(=N\O)C1(C)N(O)C(C)(C)C(c2cccs2)=[N+]1[O-] (stereo not given) | 95 | 91 | . | -27
Cc1ccc(N2CCN(C(=O)c3cccs3)CC2)cc1C | 103 | 73 | 106 | -10
O=C(c1cc2cc(Br)ccc2oc1=O)N1CCSC1c1cccc(Cl)c1 (stereo not given) | . | . | 101 | 13
CC(c1ccco1)N(C(=O)c1sc2ccccc2c1Cl)c1ccccn1 (stereo not given) | 98 | 89 | 104 | -6
c1ccc(-c2nc(CSc3nc4ccccc4[nH]3)c(CSc3nc4ccccc4[nH]3)o2)cc1 | 100 | 84 | 110 | -22
Cc1cc(C)cc(NCCC#N)c1 | 91 | 88 | . | -15
O=C(Cc1ccccc1)NNc1cccc(Cl)c1 | 97 | 78 | 107 | -5
COc1ccc(-c2n[nH]c(=S)n2/N=C/c2cccc(OC)c2O)cc1 | 120 | 96 | 105 | -4

Whole records, looked up by structure. Order of screens: Sa growth inh | Sa growth inh second temp | GIV-Gai inh | HCMV UL50-53 inh
CC(/C(=N/O)c1ccccc1)N1CCC(O)O1 (stereo not given) is listed as 82 | 91 | . | -14
Cc1ccc(OCCCn2cnc3ccccc32)cc1 is listed as 79 | 62 | 99 | .
O=C1NCCCc2nc(N3CCCCC3)sc21 is listed as 85 | 93 | 101 | -11
COc1cc(C2CC(=O)Nc3nc(N)[nH]c(=O)c32)ccc1OCc1ccccc1 (stereo not given) is listed as . | . | 96 | -22
Cc1ccc(N2CCN(C(=O)c3cccs3)CC2)cc1C is listed as 103 | 73 | 106 | -10

Part of the list above, field by field:
> CC(C)N(Cc1ccccc1)C(=O)COc1ccccc1
  Sa growth inh: 81
  Sa growth inh second temp: 87
  GIV-Gai inh: .
  HCMV UL50-53 inh: -12

> COc1cc(NC(=O)Cn2c(SCc3ccc(F)cc3)nc3cccnc32)cc(OC)c1
  Sa growth inh: 102
  Sa growth inh second temp: 90
  GIV-Gai inh: 112
  HCMV UL50-53 inh: .

> O=c1cc(CN2CCOCC2)nc2sccn12
  Sa growth inh: 115
  Sa growth inh second temp: 97
  GIV-Gai inh: .
  HCMV UL50-53 inh: -6

(list continues)
SMILES | Sa growth inh | Sa growth inh second temp | GIV-Gai inh | HCMV UL50-53 inh
O=C(NCc1ccccc1)c1cc2c(s1)CS(=O)(=O)C2 | 87 | 84 | 104 | .
COc1ccccc1NC(=O)Cn1c(=O)n(-c2cccc(Cl)c2)c(=O)c2c1c1cc(C)ccc1n2C | 86 | 89 | 98 | -7
CN(C)CCNC(=O)c1ccc(N2CCOc3ccccc32)s1 | 104 | 94 | 105 | -31
CC(C)=CC(=O)N1CCN(S(=O)(=O)c2ccc(C)cc2)CC1 | 94 | 87 | . | -30
COc1ccccc1NC(=O)Oc1ccccc1N1CCCC1 | 74 | 69 | 113 | 3
CCOC(=O)c1c(-c2ccccc2)oc2c1cc(OC(=O)c1ccc(C)cc1)c1ccccc12 | . | . | 101 | -3
CCCCCCCCc1ccc(-c2ccc(C(=O)O)cc2)cc1 | . | . | 97 | -7&-28
O=C(NCc1ccc(Cl)cc1)C1CCn2c(nc3ccccc32)C1 (stereo not given) | . | . | 109 | -47
COc1nnc(-c2ccc(N3CCCCC3)c(NC(=O)c3ccccc3)c2)c2ccccc12 | 93 | 91 | 99 | -25
O=C(CCC(=O)N1CCN(c2nc3cccnc3s2)CC1)N1CCN(c2ccccn2)CC1 | . | . | 108 | 9
O=C(O)c1ccccc1C(=O)Nc1ccccn1 | 88 | 95 | . | -15
CCOC(=O)N1CCN(Cc2nc3cc(NC(=O)c4ccccc4[N+](=O)[O-])ccc3n2C(C)C)CC1 | 82 | 94 | 104 | -44
COC(=O)c1ccc(NC(=O)CC2C(=O)N(c3ccc(C)cc3)C(=O)N2Cc2ccc(OC)cc2)cc1 (stereo not given) | 82 | 81 | 106 | .
Cn1cc(/C=C/c2nc3ccccc3c(=O)n2CCc2ccccc2)c2ccccc21 | . | . | 99 | 11
Cc1ccc(S(=O)(=O)C(=O)Nc2cccc3nsnc23)cc1 | 124 | 82 | 105 | -43
CC(=O)Nc1cc(C(F)(F)F)ccc1NC(=O)C(F)(F)F | 99 | 100 | . | 10
CCOc1ccc(CCN2C(=O)CCC2(C)C(=O)NC2CCCC2)cc1OCC (stereo not given) | . | . | 102 | -24
Cc1ccccc1-c1csc2c(=O)[nH]cnc12 | . | . | 98 | 1
Cc1c(C)c(C)c(CSC2=NCN(C)CN2)c(C)c1C | 93 | 97 | 99 | 5
O=C(O)CCCC(=O)c1ccccc1 | 97 | 79 | 105 | .
O=[N+]([O-])c1cc(-c2nc(-c3ccccc3)no2)ccc1N1CCCC1 | 96 | 85 | 100 | -27
O=C(Cc1ccsc1)OCC(=O)N1CCN(S(=O)(=O)c2ccc(Cl)cc2)CC1 | 104 | 95 | . | -30
Cc1cc(C)cc(N2C(=O)CS(=O)(=O)C23C(=O)N(C)c2ccccc23)c1 (stereo not given) | 82 | 90 | 105 | .
COc1ccc(/C=C2\CCCC3=C2NC(=S)NC3c2ccc(OC)cc2)cc1 (stereo not given) | 105 | 80 | 101 | .
COc1ccc(-c2nnc(SC(C)C(=O)NC34CC5CC(CC(C5)C3)C4)o2)cc1 (stereo not given) | 97 | 97 | . | -7
CCCCCCOc1ccc(C2C(=O)N(C3CCCCC3)CC(=O)N2CCCC)cc1 (stereo not given) | 91 | 86 | 101 | .
CCS(=O)(=O)N(CC(=O)N1CCCC1)c1ccc(OC)cc1 | 111 | 86 | . | -11
COc1ccc(C2CC(=O)c3cc(-c4nc(-c5ccc(C)cc5)cs4)c(=O)[nH]c3C2)cc1 (stereo not given) | 96 | 87 | 144&149 | -24&-26
CCOc1ccc(/C(O)=C2\C(=O)C(=O)N(CCN(CC)CC)C2c2ccc(Cl)cc2)cc1C (stereo not given) | 104 | 85 | 104 | .

A different layout for 3 compounds above:
> CCOC(=O)c1cnc2cc(-c3ccc(C(C)(C)C)cc3)[nH]n2c1=O
  Sa growth inh = 90
  Sa growth inh second temp = 91
  GIV-Gai inh = 104
  HCMV UL50-53 inh = 5

> COC(=O)c1ccc(NC(=O)CC2C(=O)N(c3ccc(C)cc3)C(=O)N2Cc2ccc(OC)cc2)cc1 (stereo not given)
  Sa growth inh = 82
  Sa growth inh second temp = 81
  GIV-Gai inh = 106
  HCMV UL50-53 inh = .

> O=C(O)CCCC(=O)c1ccccc1
  Sa growth inh = 97
  Sa growth inh second temp = 79
  GIV-Gai inh = 105
  HCMV UL50-53 inh = .
